Screens: PubChem, National Center for Advancing Translational Sciences (NCATS)
gsp antag – antagonizes gsp, the McCune-Albright syndrome mutation; gsp-mutant cells, cAMP HTRF, 30 min; control for the full effect not named in the record; Potency, µM (top dose mostly 76.9 µM), without a hit: at the highest dose activity change, negative = inhibition, hits mostly inhibitors; AID 624288; 340,000 tested, 0.4% active; active = falling curve of any shape with a large fitted effect; inconclusive = falling curve, mostly with a smaller effect; inactive = flat or rising curve; cell line not stated here;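 further: intracellular cAMP measured with PDE inhibitor Ro 20-1724 present during compound exposure; potency means the concentration at half of the fitted maximal effect; on the % scale 0 is the no-effect control and ±100 the full control effect; nearly all actives have a fitted effect of over 65% in size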
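Measurement of cellular cAMP by homogeneous time-resolved fluorescence following a 30 min compound exposure at 37C. The PDE inhibitor […] was present throughout; the assay buffer was DPBS with 0.05% BSA and 0.005% Tween 20.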
Menin MLL FP FL – inhibitors of human menin-MLL interaction, wild-type MLL peptide. Fluorescence polarization, fluorescein-MLL peptide displacement from menin. FP activity change, % at 61.4 µM. AID 1766. 290,000 tested, under 10 active; inconclusive = falling polarisation curve, or a change in total fluorescence; inactive = total fluorescence flat and polarisation flat or rising; no compound was filed as active; the % refers to the polarisation; negative = inhibition;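 further: % of control where 0% means no effect; inhibitors lower the polarisation; unlabelled MLL peptide was the positive control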
gsp ag – agonists of gsp mutant (McCune-Albright syndrome) | Potency, µM (doses to about 76.9 µM), inactives show top-dose activation (cAMP increase), most hits filed as activators | 340,000 tested, 0.13% active | gsp mutant cells, cAMP HTRF, 30 min; control for the full effect not named in the record; active = well fitted activation curve with a large enough effect; inconclusive = small, poorly fitted or top-dose-only effect, or another doubt; inactive = no such curve, though single readings can be large or run the other way; cell line not stated here;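 further: phosphodiesterase inhibitor Ro 20-1724 added with compounds to block cAMP breakdown; potency means the concentration at half of the fitted maximal effect; nearly all actives have a fitted effect of over 60% in size; about a fifth of the inactives were tested at one dose only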
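Cells in DMEM/10% FBS with G418 were pretreated with compounds in DMSO plus […] (300 uM stock) for 30 min at 37C. cAMP was measured by HTRF (cAMP-d2 plus anti-cAMP antibody-K) after 30 min at room temperature.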
TRPV1 PAM – potentiators of human vanilloid receptor 1 (TRPV1). Q8NER1. TRPV1-expressing cells, Fluo-8 calcium influx, capsaicin EC20 potentiation; host cell line not named in the record; control for the full effect not named in the record. potentiation, % at 8.33 µM. 320,000 tested, 0.02% active. AID 540277; active means potentiation above 80%; inconclusive means 30% to 80%; inactive means below 30%; further: 0% is about no effect
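Fluo-8 calcium influx in TRPV1-expressing cells, kinetic read (ex 480/em 520 nm). Compound added and read 3 min for agonist activity, followed by capsaicin at EC20 final and 2 min further read for enhancement.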
TRPML1 blocker – blocks the human TRPML1 channel; activity change, negative = inhibition, % (test concentration not listed); 390,000 tested, 0.02% active; TRPML1-inducible cells, Ca2+ dye fluorescence, FDSS; active compounds read low; inhibition of EC80 agonist-evoked calcium signal; in the data active means activity change below about -50%; inconclusive means about -30% to -50%; inactive means above about -30%;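 further: stimulus is agonist 54-4 at its EC80 concentration; on the % scale 0 is the no-effect control and ±100 the full control effect; compound concentration not given in the record; the text of the record puts the active cut at -80%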
Target sequence (Q9GZU1 whole entry, looked up): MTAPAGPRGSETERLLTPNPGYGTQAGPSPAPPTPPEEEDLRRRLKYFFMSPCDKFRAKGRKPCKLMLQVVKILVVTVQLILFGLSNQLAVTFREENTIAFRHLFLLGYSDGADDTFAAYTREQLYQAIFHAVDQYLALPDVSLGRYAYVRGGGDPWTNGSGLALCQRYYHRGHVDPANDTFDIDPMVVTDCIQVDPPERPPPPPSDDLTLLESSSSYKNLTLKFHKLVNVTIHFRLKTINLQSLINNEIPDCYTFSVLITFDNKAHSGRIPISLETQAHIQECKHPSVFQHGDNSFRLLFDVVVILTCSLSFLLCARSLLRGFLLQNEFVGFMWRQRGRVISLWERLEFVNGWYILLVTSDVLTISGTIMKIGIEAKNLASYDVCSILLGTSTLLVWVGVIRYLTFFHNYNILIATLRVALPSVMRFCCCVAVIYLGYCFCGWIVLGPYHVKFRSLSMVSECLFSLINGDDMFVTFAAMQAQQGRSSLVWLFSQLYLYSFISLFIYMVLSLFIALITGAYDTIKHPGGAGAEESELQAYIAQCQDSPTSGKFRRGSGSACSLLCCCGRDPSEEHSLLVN
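TRPML1-DL cells, Tet-induced overnight (~16 h, 37 °C) at 1,500 cells/well, were loaded with Ca8 no-wash dye plus quencher for 45-90 min at room temperature. Compounds were pinned during FDSS kinetic reading; agonist 54-4 at EC80 (4 uM final) then added.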
ClpP mod – qHTS Assay for Activators of ClpP | ATP-dependent Clp protease proteolytic subunit (Bacillus subtilis (strain 168)), P80244 | purified B. subtilis ClpP, FRET peptide cleavage, 20 min | Potency, µM (top dose mostly 57.5 µM), inactives show at the top dose activity change, negative = active | 340,000 tested, 1.9% active | AID 651965, 2013; active = well fitted falling curve with a large enough effect; inconclusive = small, poorly fitted or top-dose-only effect; inactive = no such curve, though single readings can be large or run the other way; further: potency means the concentration at half of the fitted maximal effect; the source files actives as falling curves though it sought activators and does not explain the sign; nearly all actives have a fitted effect of over 65% in size; many hits overshoot -100%
Target sequence (P80244 whole entry, looked up): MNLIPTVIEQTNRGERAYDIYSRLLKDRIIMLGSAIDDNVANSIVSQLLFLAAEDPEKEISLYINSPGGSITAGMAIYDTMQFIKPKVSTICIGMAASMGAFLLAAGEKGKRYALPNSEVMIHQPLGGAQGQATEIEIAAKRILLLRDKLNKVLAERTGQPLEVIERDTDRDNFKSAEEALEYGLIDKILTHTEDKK
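Purified B. subtilis ClpP, 10 microg/mL final in Tris/HCl pH8 with KCl, BSA, glycerol and Tween-20, cleaved an Abz/nitrotyrosine-quenched decapeptide. Fluorescence (ex 320, em 430) was read at 0 and 20 min at room temperature. Delta was normalized to 5.8 microM ADEP and DMSO/no-enzyme controls.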
Sfp PPTase inh – inhibitors of Bacillus subtilis Sfp phosphopantetheinyl transferase; Q9F4F7; Biochemical Sfp PPTase activity, qHTS; Potency, µM, inactives show max response, negative = inhibition, usual class: inhibitors; 310,000 tested, 3.5% active; active means well fitted inhibition curve with a large enough effect; inconclusive means small, poorly fitted or top-dose-only effect, or another doubt; inactive means no such curve, though single readings can be large or run the other way;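 further: the enzyme is Sfp with the accession as filed and its product quenches rhodamine fluorescence; potency means the concentration at half of the fitted maximal effect; 0% = enzyme reaction without inhibitor and -100% = no enzyme wells; top concentration of the series not given in the record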
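Fluorescence-quenching assay: 15 nM Sfp-PPTase preincubated 15 min at room temperature with compound, then 5 uM rhodamine-CoA and 12.5 uM BHQ-2-labelled YbbR peptide added. Fluorescence (ex 525/em 598 nm) read at start and after 30 min; difference gives rate.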
Active calls of the source: *; ? = inconclusive; nt = not tested or not shown; & = joins results of further samples; [ ] = dose if it differs, or a comment.

SMILES	gsp antag	Menin MLL FP FL	gsp ag	TRPV1 PAM	TRPML1 blocker	ClpP mod	Sfp PPTase inh
NC(=O)N1c2ccccc2C=Cc2ccccc21	-10%&2%	-2.4	nt	-3&3	-10&20	3.0%&-3.0%	24%&-9%&-3%&19%
CCSCCOC(=O)C1=C(C)N(C)C(=O)NC1c1cc(OC)ccc1OC (configuration not stated)	4%	3.0	-2%	13	0	?	7%
COC(=O)C1=C(C(=O)OC)[C@@H]2N(Cc3ccccc3)c3ccccc3[C@@]23C[C@@H](C(=O)OC)N(C(=O)NC2CCCCC2)C3=N1	7%	nt	-24%	nt	-9	1.7%	nt
CCCC[n+]1c2ccccc2cc2ccccc21	-10%	nt	8%	-20	4	5.0%	?
O=C(CNS(=O)(=O)c1ccccc1)N/N=C/c1ccncc1	-9%	nt	?	3	-1	0.0%	nt
Cc1c(Cl)cccc1NC(=S)N1CCC(N(C)CC2CCCO2)CC1 (configuration not stated)	11%	-1.3	7%	6	17	nt	9%
O=C(Cc1ccccc1)Nc1ccc2oc(-c3cccnc3)nc2c1	-4%	2.7	-9%	-16	-19	28µM*	3%
CC1CCCCC1NC(=O)CN(C)S(=O)(=O)c1cccc2nsnc12 (configuration not stated)	9%	-0.2	17%	-4	5	-1.1%	5%
Cc1cccc(C(=O)NCC(=O)N2CCOCC2)c1	11%	-0.2	?	?	7	1.6%	4%
O=C1c2ccccc2C(=O)N1c1nc2nccc(-c3ccccc3)n2n1	-1%	0.8	11%	-6	2	6.7%	5%
Cc1cccc(NC(=O)NCC(F)(F)F)n1	3%	0.1	18%	5	-8	0.1%	7%
CSCCC(NC(=O)c1ccco1)C(=O)N(C)CC(=O)Nc1c(Cl)cccc1Cl (configuration not stated)	8%	nt	2%	2	-4	-3.7%	nt
CCOP(=O)(c1ccccc1Cl)C1(O)CCCCC1 (configuration not stated)	1%	2.1	4%	26	-8	-4.3%	5%
CN(C)N1C(N)=C(C#N)C(c2ccccc2)C2=C1CCCC2=O (configuration not stated)	2%	-1.6	4%[15.4 µM]	-8	-6	nt	8%
COCCN(C(=O)c1ccco1)c1nnc(-c2ccc(OC)cc2)s1	-20%	0.6	-12%	-8	3	2.0%	-12%
COc1ccc(C(=O)Nc2cccc(S(=O)(=O)N3CCCC3)c2)cc1S(=O)(=O)N1CCOCC1	-10%	nt	-8%	nt	14	nt	nt
CN1CCN(c2ccc([N+](=O)[O-])cc2NC(=O)c2ccco2)CC1	-19%	nt	?	-14	-8	0.4%	13%
O=C(O)CCN1CC2([N+](=O)[O-])C=CC(=O)C([N+](=O)[O-])(C1)C2CC(=O)c1ccccc1 (configuration not stated)	-11%	nt	-2%	8	-7	-0.3%	?
Cc1ccc(-c2cn3c(n2)CCCC3)cc1	2%	-1.2	3%	-10	30	-4.0%	6%
O=C(Nc1cccc(S(=O)(=O)NC2=NCCC2)c1)c1cc(F)c(F)c(F)c1F	4%	nt	-3%	2	-4	-4.2%	nt
O=C(Nc1ccccc1C(=O)NC(Cc1c[nH]c2ccccc12)C(=O)O)c1ccccc1 (configuration not stated)	3%	5.0	-1%[15.4 µM]	nt	6	nt	17%
Cc1ccn(CC(C)C(=O)O)n1 (configuration not stated)	4%	-1.3	0%[15.4 µM]	10	-10	nt	7%
CCOC(=O)C1CCCN(C(=O)c2cc3nc(-c4ccc5c(c4)OCO5)cc(C(F)(F)F)n3n2)C1 (configuration not stated)	-23%	5.4	?	-4	18	-5.8%	6%
COc1ccc(NC(=O)N(C)C[C@H]2Oc3c(NC(=O)Cc4ccccc4)cccc3C(=O)N([C@H](C)CO)C[C@@H]2C)cc1	-11%	nt	4%	nt	13	-0.2%	nt
Brc1ccc2nc3c(n2c1)CCCC3	14%	1.6	?	-17	-9	0.7%	3%
NC(=O)NCc1ccccc1	-3%	-1.1&0.1	nt	12	31	-2.3%	24%&10%
Clc1cccc(NC2=NCCC2)c1	-4%	-1.3	19%	-5	-11	2.7%	19%
CC(C)(C)c1ccc(-c2nc3n(c(=O)c2C#N)CCS3)cc1	-17%	-1.7	7%[15.4 µM]	-4	32	nt	-2%
O=C(NCCOC(=O)c1ccncc1)c1ccccc1	-9%	11	-22%	25	3	-4.1%	12%
COc1ccc(NC(=O)CN(C)Cc2cccs2)cc1Cl	0%	1.8	0%	-6	-4	nt	-3%
CCc1nc(SCC(=O)N2CCOCC2)c2c(=O)n(C)c(=O)n(C)c2n1	-2%	9.8	?	28	-3	-1.0%	?
Cc1ccc(S(=O)(=O)N2CCc3ccccc3C2)cc1C	-5%	-1.1	19%	-12	-7	1.8%	5%
COC(=O)c1sc(-c2ccc(C(C)(C)C)cc2)cc1NC(=O)/C=C/C(=O)O	?	-0.6	1%	-33	3	nt	-18%
COc1ccc(CCNC(=O)CS(=O)(=O)c2cn(CC(=O)N3CCOCC3)c3ccccc23)cc1OC	11%	-3.0	-18%	-22	16	0.0%	-10%
COc1ccc2cc(C(=O)C3CCCN(C(=O)c4cc5nc(C)cc(C)n5n4)C3)ccc2c1 (configuration not stated)	?	-8.8	0%	3	-11	4.0%	14%
CC(=O)N1CCc2cc(S(=O)(=O)NCc3ccc(C)cc3)ccc21	6%	nt	-1%	4	-12	nt	15%
CC1=CCC2C(=O)N(c3ccc(C(=O)N4CCCCCC4)cc3)C(=O)C2C1 (configuration not stated)	8%	3.2	-24%	-19	-17	-2.2%	10%
O=C(NCCc1cn2ccccc2n1)c1ccccc1F	9%	1.7	?	3	70	-24%	15%
Cc1ccc(OCC(=O)N(Cc2ccco2)c2c(N)n(Cc3ccccc3)c(=O)[nH]c2=O)cc1C	2%	nt	-35%[inhibitor]	1	-5	1.7%	nt
Cc1c(NS(=O)(=O)c2ccc3c(c2)OCCO3)cccc1-c1nc2cccnc2s1	?	8.0	-56%[inhibitor]	?	-2	0.0%	21%
Cn1c(=O)c(-c2cc(Br)ccc2N)nc2ccccc21	-12%[15.4 µM]	0.8	20%	0	-5	-2.8%	-19%
Cc1nn(-c2ccccc2)c(C)c1/C=N/NC(=O)c1cc(C2CC2)[nH]n1	-7%	1.6	23%	5	32	-0.8%	18%
O[C@@H](CNC[C@H](O)c1ccccc1)c1ccccc1	-5%	1.7	3%	6	-3	-0.4%	?
N#CC1=C(N)N(c2ccc(Br)cc2)C2=C(C(=O)CCC2)C1c1cccnc1 (configuration not stated)	-15%	?	-20%	17	6	-7.3%	5.6µM*
O=C(Cc1ccccc1C(=O)O)Nc1cccc2ccccc12	10%	3.4	?	-2	-11	nt	13%
O=C1c2ccccc2C(O)N1c1ccc(Cl)cc1 (configuration not stated)	0%	1.4	-2%	-4	11	0.1%	8%
Cc1ccc(OCCNC(=O)c2cncc(Br)c2)cc1C	2%	2.3	-27%	3	-3	0.9%	-2%
CC(C(=O)O)C1SC(=O)NC1=O (configuration not stated)	16%	-0.5	-33%[inhibitor]	-3	-5	-0.3%	8%
CC(=O)[C@H]1[C@@H]2C(=O)N(c3cccc(Cl)c3)C(=O)[C@@H]2[C@H]2c3ccccc3C=CN21	-1%	?	-26%	4	7	-9.2%	?
COc1ccc(CC(=O)N2CCN(c3cccc(Cl)c3)CC2)cc1OC	-14%	-1.8	-12%	-16	-4	nt	10%
Cc1ccccc1OCCOc1ccc([N+](=O)[O-])cc1/C=N/n1cnnc1	-8%	-5.2	-2%[15.4 µM]	-2	-11	nt	6%
C=CC1C(N2CCOCC2)C(C)(C)S1(=O)=O (configuration not stated)	-10%	5.1	-4%	2	-8	-2.2%	13%
COCCOC(=O)C1=C(C)Nc2nc(C)nn2C1c1ccccc1 (configuration not stated)	-1%	4.2	8%	1	7	-3.8%	18%
CS/C(=C\[N+](=O)[O-])Nc1ccc(OC(F)(F)F)cc1	-6%	-0.9	8%	3	4	-3.7%	15%
CC(C)CNC(=O)NC(=O)COC(=O)C1CSC2(c3ccc(F)cc3)CCC(=O)N12 (configuration not stated)	-2%	-0.2	-1%	-5	5	nt	11%
Cc1cccc(OCCC(=O)Nc2nnc(C)s2)c1	8%	5.3	1%[15.4 µM]	16	-13	nt	9%
COc1cccc(CNC(=O)CNS(=O)(=O)c2ccc(Br)s2)c1	-12%	-17	-4%[15.4 µM]	-5	-1	-1.5%	8%
COCCNCCCOc1ccc(C(C)(C)c2ccccc2)cc1	-10%	-2.2	?	-3	-9	-2.3%	16µM*
COc1ccc(CCNC2CC(=O)N(C)C2=O)cc1OC (configuration not stated)	0%	4.1	1%	19	-1	-0.5%	1%
CSc1nccc(Nc2ccccc2)c1C#N	-2%	-1.8	9%	-2	34	-1.4%	5%

Retrieved one by one from the list above:
SMILES	gsp antag	Menin MLL FP FL	gsp ag	TRPV1 PAM	TRPML1 blocker	ClpP mod	Sfp PPTase inh
COc1ccc(CC(=O)N2CCN(c3cccc(Cl)c3)CC2)cc1OC	-14%	-1.8	-12%	-16	-4	nt	10%
CC(C(=O)O)C1SC(=O)NC1=O (configuration not stated)	16%	-0.5	-33%[inhibitor]	-3	-5	-0.3%	8%

(continued)
SMILES	gsp antag	Menin MLL FP FL	gsp ag	TRPV1 PAM	TRPML1 blocker	ClpP mod	Sfp PPTase inh
CCOC(=O)CNC=C(C(=O)OCC)C(=O)OCC	-2%	0.9	7%	4	9	-3.1%	2%
CCOC(=O)N1CCc2cc(OC)c(OC)c3c2c1cc1cc(OC)c(OC)cc13	-8%	nt	-9%	nt	13	28µM*	nt
CC1CCc2nc(N)c(C#N)c(-c3ccncc3)c2C1 (configuration not stated)	4%	3.8	18%	-1	-4	?	2%
COc1cc(/C=C(\C#N)c2nc3ccccc3s2)cc([N+](=O)[O-])c1O	?	20	-1%[15.4 µM]	-8	48	nt	-29%
O=C(Nc1ccncc1)c1ccccc1Cl	7%	7.1	0%	1	30	-25%	4%

Random draw from the library; about 4.9% have a hit in one of these screens.
